# Anthrax LT inh: anthrax lethal toxin internalization inhibition. Cells, anthrax lethal toxin internalization, FRET ratio (460/530). Potency, µM (highest dose often 40 µM), without a hit: at the top dose activity change, negative = inhibition, most hits filed as inhibitors. 0.67% of 70,000 active. AID 912; active = well fitted falling ratio curve with the 530 nm signal flat; inconclusive = other ratio curves, or a change in one channel alone; inactive = flat curves in the ratio and both channels; the % refers to the ratio; also: % is scaled to controls: 0 for no effect and ±100 for the full control effect; nearly all actives have a fitted effect of over 50% in size; tested in ME-180 cells; beta-lactamase reporter
# Prx2 Sm inh: inhibitors of Schistosoma mansoni peroxiredoxin 2. S. mansoni Prx2 activity coupled to TGR/GSH (TGR is thioredoxin glutathione reductase), NADPH fluorescence loss, qHTS; some inactives read as strong as hits. Potency, µM. 0.07% of 65,000 active. AID 448; active means full or partial inhibition curve with a strong effect at the top dose; inconclusive means weaker partial or single-point curve; inactive means no accepted curve; also: series up to 57 µM; many of its hits are not listed in these tables
#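 Activity is read as the drop in NADPH fluorescence (365/450 nm), recorded every 30 sec for 8 min after H2O2 addition. Prx2 is coupled to TGR-driven NADPH oxidation through glutathione, in phosphate buffer pH 7.4.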
# An asterisk follows results filed as active; u = inconclusive; x = no result given; [ ] = another dose, or the depositor's remark. Potency is read from the fitted curve at half-maximal effect. The list is partial; the hit share may differ from the screen's.
SMILES,Anthrax LT inh,Prx2 Sm inh
COc1ccc(NC(=O)Cc2cccs2)c(OC)c1,9%,x
C=CCN=C1CC(C)(C)CC(=O)/C1=C(/O)CCC(=O)OC,7%,>57
O=C(CCn1c(=O)oc2ccccc21)NCc1cccs1,5%,>57
COC(=O)[C@@H](NC(=O)Nc1ccc2c(c1)OCCO2)C(C)C,10%,>57
N#CCCC#N,3%,x
CCCc1cc(C(=O)NCc2ccco2)no1,-5%,>57
CN(C)c1nc(N)nc(CSc2nc3cc(Cl)ccc3o2)n1,-3%,>57
CC1(C)Cc2ccccc2-c2nnc(-c3ccccn3)n21,4%,>57
COc1ccccc1Nc1ccc(C(=O)NC2CCCCC2)cn1,-1%,>57
Cn1c(SCC(=O)NCc2cccs2)nnc1-c1ccncc1,-7%,>57
CN1[C@@H](c2ccccc2)CC(=NO)C[C@H]1c1ccccc1,-4%[8 µM],>57
CN1CC2CCCC3(C1)C(=O)NC1(CCCCC1)N=C23 (configuration not stated),-3%,>57
O=C1[C@H]2[C@H]3[C@H](O)[C@H](O)C/C(=N/OC[C@@H](O)COCc4ccco4)[C@@H]3CC[C@@H]2C(=O)N1C[C@@H]1CCCO1,15%[0.32 µM],x
COc1ccc(NC(=O)C2CCCNC2)cc1OCC(C)C (configuration not stated),-21%,x
O=C(O)CSc1nnc(-c2ccccc2)o1,18%,>57
CN1[C@H]2CC(=O)C[C@@H]1[C@@H](O)C2,-4%[3.58 µM],>57
N#Cc1c2c(c(N3CCN(CCO)CC3)n3c1nc1ccccc13)CCCC2,-4%,>57
c1ccc(-c2nc3ccccc3o2)nc1,2%,>57
O=C(NCCc1c[nH]c2ccccc12)c1ccc(S(=O)(=O)NCc2ccco2)cc1,-28%,>57
CCn1c(=O)c(C(=O)CN2CC(C)OC(C)C2)c(N)n(Cc2ccccc2)c1=O (configuration not stated),10%,>57
CN(c1ccccc1)C(c1ccc(F)cc1)c1nnnn1CC1CCCO1 (configuration not stated),u,>57
COc1ccc(-c2nnc(SCC(=O)N3CCCc4ccccc43)o2)cc1OC,u,>57
CC1=C(NCCc2ccccc2)CCC1=O,14%,x
O=C(NCCc1ccccc1)C1CCCN(S(=O)(=O)c2cnc[nH]2)C1 (configuration not stated),-3%,>57
COc1ncc2nc(-c3ccc(F)cc3)c(=O)n(CCc3ccccc3)c2n1,-10%,>57
CC(C)(C)NC(=O)C(Cc1ccccc1)NS(=O)(=O)c1cccc2nsnc12 (configuration not stated),-4%,>57
CCn1cc(SCC(N)=O)c2ccccc21,13%,>57
CCCCCn1c(CN2CCN(c3cccc(Cl)c3)CC2)nc2c1c(=O)n(C)c(=O)n2C,-4%,>57
Cc1ccc(N2CC(C(=O)Nc3ccc(S(=O)(=O)N4CCOCC4)cc3)CC2=O)cc1 (configuration not stated),0%,>57
Cc1ccc2cccc(O)c2[n+]1[O-],12%,>57
O=C1CCCN1CCCNc1ccc(S(=O)(=O)N2CCCCC2)cn1,0%,>57
O=C(COc1ccc(Br)cc1)Nc1ccc(-c2nnc(-c3ccco3)o2)cc1,u,>57
CC(=O)Nc1cccc(NC(=O)CCCC(=O)O)c1,-8%,x
O=C(CSc1nnc(-c2cccnc2)n1CCc1ccccc1)N1CCCCC1,-4%,>57
CN1CC[C@@]2(c3cccc(O)c3)Cc3nc4ccccc4cc3C[C@H]2C1,-4%,>57
COc1ccc(CSc2n[nH]c(C)n2)cc1Br,-14%,>57
CC(=O)c1c(N2CCN(C(=O)c3ccco3)CC2)nc(=S)n(-c2ccccc2)c1C,2%,>57
Cc1ccc(C2CC(=O)NC3=C2C(=O)CCC3)cc1Br (configuration not stated),-2%,>57
COc1ccc(C(=O)O)cc1S(=O)(=O)N(C)CCc1cccnc1,10%,>57
O=C(O)c1ccccc1C(=O)Nc1cc2c(cc1Br)-c1ccccc1C2=O,u,>57
CC(=O)N1CCN(Cc2cc(=O)n3cc(Cl)c(C)c(Cl)c3n2)CC1,-6%,>57
CCCCCn1c(CN2CCN(C(=O)OCC)CC2)nc2c1c(=O)[nH]c(=O)n2C,7%,>57
CCOc1ccccc1N1C(=O)c2ccc(C(=O)O)cc2C1=O,-10%,>57
c1cc(CNC2=NCCCCC2)ccn1,10%,>57
O=C(c1cc(-c2ccccc2)on1)N1CCN(C(=O)c2ccco2)CC1,-8%,>57
COc1ccccc1-c1nc(N2CCOCC2)c2ccccc2n1,11%,>57
CCOc1cccc(NC(=O)C2CC(=O)N(C)C(=Nc3ccccc3)S2)c1 (configuration not stated),-6%,>57
Clc1ccc(CSCCc2ccncc2)cc1Cl,-12%[8 µM],>57
COc1ccc(-c2nnc(SC(C)C(=O)Nc3ccc4c(c3)OCCO4)o2)cc1 (configuration not stated),4%,>57
Cc1csc2c(C#N)c(=O)c3c(n12)CCC3,-10%,>57
N=c1n(CCN2CCOCC2)c2ccccc2n1CC(=O)c1ccc(Cl)c(Cl)c1,-17%,>57
Cc1cc(C)c2c(N)c(S(=O)(=O)c3ccccc3)sc2n1,-6%,x
CCOCCOC(=O)COc1ccc(N2C(=O)c3ccccc3C2=O)cc1,-3%,>57
CCOC(=O)c1ccc(N2C(=O)CC(SCC(N)C(=O)OCC)C2=O)cc1 (configuration not stated),u,>57
Cc1nc(N)sc1-c1csc(N(C)c2ccc(O)cc2)n1,x,>57
Cc1cc(C)nc(NS(=O)(=O)c2ccc(NC(=O)CCC3COc4ccccc4O3)cc2)n1 (configuration not stated),x,>57
O=S(=O)(NCc1csc(-c2cccnc2)n1)c1cccs1,-8%,>57
Cc1sc2ncnc(N3CCCCC3C)c2c1C (configuration not stated),-10%,>57
Cc1ccc(NC(=O)CSc2nnc(-c3ccccc3Br)o2)cc1C,-23%,>57
COc1ccc2[nH]cc(CCNc3nc(-c4cccc(NS(C)(=O)=O)c4)nc4ccccc34)c2c1,u,>57

# Profiles, looked up by structure. Order of values: Anthrax LT inh	Prx2 Sm inh
# Profile of O=C(c1cc(-c2ccccc2)on1)N1CCN(C(=O)c2ccco2)CC1 = -8%	>57
# Profile of COc1ccc(-c2nnc(SCC(=O)N3CCCc4ccccc43)o2)cc1OC = u	>57
# Profile of CCn1c(=O)c(C(=O)CN2CC(C)OC(C)C2)c(N)n(Cc2ccccc2)c1=O (configuration not stated) = 10%	>57

# Remaining list, next part.
SMILES,Anthrax LT inh,Prx2 Sm inh
O=C(CSc1nnc(CNC(=O)c2cccs2)o1)NC1CCCC1,3%,>57
CCOC(=O)CCc1c(C)nc2ncnn2c1C,u,>57
N#CC(=NCCO)C1=C(O)c2ccccc2C1=O,-14%[8 µM],>57
C[C@@H](c1ccccc1)N1C(=O)[C@H]2[C@H]3[C@H](O)[C@H](O)C/C(=N/NC(=O)OCc4ccccc4)[C@H]3CC[C@@H]2C1=O,-11%[1.6 µM],x
COc1ccccc1N1CCN(C(=O)C(Cc2ccccc2)NC(=O)C2CCCCC2)CC1 (configuration not stated),u,>57
CC(C)CC(c1nnnn1Cc1ccco1)N1CCN(c2cccc(Cl)c2)CC1 (configuration not stated),u,>57
Cc1cc(NC(=O)c2ccc(N(C)S(=O)(=O)c3ccccc3)cc2)no1,-3%,>57
CCOC(=O)N1CCC(NC(=O)CCCN2C(=O)CSc3ncccc32)CC1,-2%,>57
CC(C)=C1C2C=CC1C(C(=O)Nc1cc(C)ccc1C)C2C(=O)O (configuration not stated),-3%,>57
COC(=O)[C@H](CCSC)NC(=O)Nc1ccc(C)cc1C,6%,>57
Cc1cc(C)cc(NC(=O)CSc2nnc(-c3ccccc3C)o2)c1,u,>57
CCCC[C@@H]1CN2[C@H](c3ccc(Br)cc3)[C@H](C)CC[C@H]2C(=O)O1,-3%[1.6 µM],x
C=CCCCOc1ccc(C(=O)O)cc1,-2%,>57
Cc1cccc(-c2noc(C3CCCCC3)n2)c1,u,>57
Cn1c(=O)n(CCN2CCOCC2)c(=O)c2c1nc1n2CCN1c1ccc(Oc2ccccc2)cc1,2%,>57
O=C1CCCC2=C1C1(CCCCC1)N=C(Nc1nc3ccccc3o1)N2,3%,>57
CN(C)c1ncc2nc(-c3ccc(Cl)cc3)c(=O)n(Cc3cccs3)c2n1,u,>57
CCOC(=O)c1[nH]c(C)c(C(=O)OCc2c(C)noc2C)c1C,13%,>57
CC(=O)[C@@]1(O)CC[C@H]2[C@H]3C[C@@H](C)C4=CC(=O)C=C[C@]4(C)[C@@]3(F)[C@@H](O)C[C@]21C,0%[3.58 µM],>57
O=C(COc1ccccc1)Nc1ccccc1N1CCCCC1,u,>57

# Among those listed so far, these have an NH in an aromatic ring.
SMILES,Anthrax LT inh,Prx2 Sm inh
O=C(NCCc1c[nH]c2ccccc12)c1ccc(S(=O)(=O)NCc2ccco2)cc1,-28%,>57
O=C(NCCc1ccccc1)C1CCCN(S(=O)(=O)c2cnc[nH]2)C1 (configuration not stated),-3%,>57
COc1ccc(CSc2n[nH]c(C)n2)cc1Br,-14%,>57
CCCCCn1c(CN2CCN(C(=O)OCC)CC2)nc2c1c(=O)[nH]c(=O)n2C,7%,>57
COc1ccc2[nH]cc(CCNc3nc(-c4cccc(NS(C)(=O)=O)c4)nc4ccccc34)c2c1,u,>57
CCOC(=O)c1[nH]c(C)c(C(=O)OCc2c(C)noc2C)c1C,13%,>57

# Continued:
SMILES,Anthrax LT inh,Prx2 Sm inh
O=C(CSc1nnc(Cn2nnc(-c3ccccc3)n2)n1-c1ccccc1)Nc1ccccc1,-3%,>57
CCOC(=O)N1CCN(C(=O)COc2ccc(S(=O)(=O)Nc3ccc(OCC)cc3)cc2)CC1,9%,>57
CNC(=O)c1ccc(-c2sc3nc(N4CCOCC4)c4c(c3c2N)CCCC4)o1,u,>57
Cc1nnc(NC(=O)CSC2CCCCC2)s1,8%,>57
C[C@@]12CC[C@H]3[C@@H](CC[C@]4(O)C[C@H](O)CC[C@@]34C=O)[C@]1(O)CC[C@@H]2C1=CC(=O)OC1,u,>57
COC(=O)C(C)n1cnc2c(nnn2-c2ccc(OC)cc2)c1=O (configuration not stated),x,>57
CCN(CC)CCCN1C(=O)C(=O)/C(=C(/O)c2ccc3c(c2)OCO3)C1c1ccccn1 (configuration not stated),3%,>57
CCCCOC(=O)Nc1cc(OC)c(Cl)cc1OC,u,>57
O=C(Nc1ccc(C(=O)N2CCOCC2)cc1)Nc1cccc(Cl)c1,-32%,>57
O=C(Cn1nc(-c2ccccc2F)ccc1=O)NCc1ccc2c(c1)OCO2,-8%,>57
COc1ccc(CNC(=O)c2ccc3c(c2)N(C)C(=O)CS3=O)cc1 (configuration not stated),0%,>57
O=C(CC(=O)NCc1cccnc1)NCc1cccnc1,2%,>57
CC(C)C[C@H](NC(=O)OC(C)(C)C)C(=O)N1CCC(C(=O)N[C@@H](Cc2ccccc2)C(=O)O)CC1,4%,>57
Cc1ccc(/C=N/c2sc3c(c2C#N)CCC3)s1,-10%,>57
O=C(N[C@@]1(C(=O)O)C[C@@H]1c1ccccc1)c1ccccc1,-11%[8 µM],>57
Cc1ccc(S(=O)(=O)Nc2ccc3nc(N)sc3c2)cc1,-21%,>57
CSC1=C(C#N)C2(CCCCC2)C(C(=O)Nc2ccccc2)=C(C)N1,-18%,x
COc1ccc(O[C@H]2C=C[C@@H](c3ccccc3)O[C@H]2COC(=O)CC/C(C)=N\OC[C@@H](O)[C@H]2O[C@H]3OC(C)(C)O[C@H]3[C@@H]2O)cc1,-6%[8 µM],x
Cc1ccc(N(CN2CCCC2=O)C(=O)c2ccc(C)c(C)c2)cc1,10%,>57
O=C(CSc1nnc(-c2ccco2)n1Cc1ccco1)NCc1cccs1,-1%,>57
CCOC(=O)CSC1=C(C#N)C(c2ccccc2Cl)C(C(=O)OC)C(=O)N1 (configuration not stated),-8%,x
CO/N=C1/c2cc(OC)ccc2O[C@@H](c2cccc(OC)c2)[C@H]1O,-1%[8 µM],x
COC(=O)c1ccc(NC(=O)c2ccco2)cc1,-17%,x
CC(C)(C)NC(=O)C(c1ccc(I)cc1)N(CCN1CCOCC1)C(=O)CCCNC(=O)c1ccccc1 (configuration not stated),9%,x
CCC(C)Sc1nc2c(cnn2-c2ccc(C)cc2)c(=O)[nH]1 (configuration not stated),-4%,>57
Cc1cc(N2CCCC2=O)cc(C)c1S(=O)(=O)NCCOc1ccccc1,2%,>57
COc1ccc(NC(=O)c2cc(-c3ccc(OC)c(OC)c3)on2)cc1OC,2%,>57
CC(C)C[C@@H](CC(=O)N[C@@H](CCC(=O)O)CC(=O)O)NC(=O)[C@@H]1CNCC[C@H]1NC(=O)C[C@@H](NC(=O)C[C@H](Cc1ccccc1)NC(=O)[C@@H]1CCCC[C@H]1N)C(C)C,-2%,>57
Cc1c(NC(=O)c2ccccc2F)c(=O)n(-c2ccccc2)n1C,-3%,>57
CCN(CC)C(=O)c1cn(C)c2ccc(S(=O)(=O)N(CC)CC)cc2c1=O,1%,>57
C1=C(CCNC2=NCCCCC2)CCCC1,7%,>57
O=S(=O)(c1ccc(S(=O)(=O)N2CCCC3(CCCCC3)C2)cc1)N1CCCCC1,0%,>57
O=C(Cn1nc(Cl)nc1Cl)c1cc2ccccc2oc1=O,-16%,>57
O=C(c1cnn2cccnc12)N1CCN(c2ccccc2)CC1,-17%,>57
O=C(O)COc1cccc(-c2ocnc2-c2nc(-c3ccccc3)c(-c3ccccc3)o2)c1,-11%,>57
COc1ccc(Cc2nnc(SCC(=O)N3CCN(c4ccccc4)CC3)o2)cc1,-19%,>57
COC(=O)N1CCC[C@@]2(CCN(c3ccccc3)C2)C1,9%,>57
Cc1ccc(-n2c(=O)cc(N3CC(C)CC(C)C3)[nH]c2=O)cc1 (configuration not stated),5%,>57
COCCn1c(SCc2nc3ccccc3s2)nc2ccccc21,-26%,>57

# Source: PubChem (National Center for Advancing Translational Sciences (NCATS))
